D2 ag = Beta-Arrestin HTS for Positive Allosteric Modulators of the Human D2 Dopamine Receptor: Agonists | DiscoveRx PathHunter D2 beta-arrestin, luminescence, 90 min; 100% = 57 uM dopamine signal | activation, % (no concentration beside the values) | 360,000 tested, 0.084% active | AID 624465, 2012; in the data active = activation above about 40%; inconclusive = about 15% to 40%; inactive = below about 15%; further: compound concentration not given in the record; the text of the record calls up to 30% inactive
Target sequence (P14416 whole entry, looked up): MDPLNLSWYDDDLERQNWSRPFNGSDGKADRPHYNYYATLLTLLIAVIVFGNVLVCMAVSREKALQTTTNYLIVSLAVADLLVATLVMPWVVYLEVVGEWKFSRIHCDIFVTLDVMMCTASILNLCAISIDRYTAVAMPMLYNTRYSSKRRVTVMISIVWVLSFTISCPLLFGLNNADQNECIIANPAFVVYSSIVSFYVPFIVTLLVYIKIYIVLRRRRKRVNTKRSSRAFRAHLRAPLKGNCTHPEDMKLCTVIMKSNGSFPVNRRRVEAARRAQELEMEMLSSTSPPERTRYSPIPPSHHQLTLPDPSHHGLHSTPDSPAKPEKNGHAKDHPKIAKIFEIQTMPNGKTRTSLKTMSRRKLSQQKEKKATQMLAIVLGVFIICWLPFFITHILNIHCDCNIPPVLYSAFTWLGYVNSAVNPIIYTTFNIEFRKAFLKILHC
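DiscoveRx PathHunter D2 beta-arrestin cells (2,100/well) attached overnight, then compound-stimulated 90 min at 37 C in HBSS/10 mM HEPES/0.1% Tween-20 buffer; beta-galactosidase complementation read by luminescence after 1 h at ambient temperature. Dopamine 57 uM final (EC100) as control.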
gsp ag = qHTS for Agonist of gsp, the Etiologic Mutation Responsible for Fibrous Dysplasia/McCune-Albright Syndrome: qHTS; gsp mutant cells, cAMP HTRF, 30 min; control for the full effect not named in the record; AID 624287, 2012; 340,000 tested, 0.13% active; Potency, µM (top dose mostly 76.9 µM), for inactives: top-dose activation (cAMP increase), most hits filed as activators; active = well fitted activation curve with a large enough effect; inconclusive = small, poorly fitted or top-dose-only effect, or another doubt; inactive = no such curve, though single readings can be large or run the other way; cell line not stated here;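 further: phosphodiesterase inhibitor Ro 20-1724 added with compounds to block cAMP breakdown; potency means the concentration at half of the fitted maximal effect; nearly all actives have a fitted effect of over 60% in size; about a fifth of the inactives were tested at one dose only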
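Cells stably selected in G418 were plated at 2000/well, grown 16-24 hr, then given compounds in DMSO with the PDE inhibitor […] (300 uM solution added) for 30 min at 37C; cAMP was read by HTRF.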
D2 potentiator = Beta-Arrestin HTS for Positive Allosteric Modulators of the Human D2 Dopamine Receptor: Potentiators | DiscoveRx D2 beta-arrestin cells, luminescence, 90 min; 100% = 57 uM dopamine signal | 360,000 tested, 0.23% active | potentiation, % (concentration not given with the values) | D(2) dopamine receptor (Homo sapiens), P14416; active = potentiation of 50% or more; inconclusive = 30% to 50%; inactive = 30% or less;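 further: compound concentration not given in the record; tested on top of an EC20 dose of dopamine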
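PathHunter D2 cells, attached overnight at 37 deg C, received compound in DMSO plus dopamine at EC20 (50 nM final) for 90 min at 37 deg C. Beta-arrestin recruitment was read as luminescence after 1 h with detection reagent at ambient temperature.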
gsp antag = qHTS for Antagonists of gsp, the Etiologic Mutation Responsible for Fibrous Dysplasia/McCune-Albright Syndrome: qHTS; gsp-mutant cells, cAMP HTRF, 30 min; control for the full effect not named in the record; Potency, µM (titrated, usually from 76.9 µM), for inactives: at the highest dose activity change, negative = inhibition, most hits filed as inhibitors; 340,000 tested, 0.4% active; AID 624288, 2012; active = falling curve of any shape with a large fitted effect; inconclusive = falling curve, mostly with a smaller effect; inactive = flat or rising curve; cell line not stated here;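 further: intracellular cAMP measured with PDE inhibitor Ro 20-1724 present during compound exposure; potency means the concentration at half of the fitted maximal effect; on the % scale 0 is the no-effect control and ±100 the full control effect; nearly all actives have a fitted effect of over 65% in size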
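HTRF cAMP measurement after 30 min RT detection following 30 min, 37C compound treatment alongside […] (added as 300 uM solution) in G418-selected cells seeded at 2000/well and grown 16–24 h.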
CtBP-E1A blk = qHTS Assay for Inhibitors of the CtBP/E1A Interaction; activity change, % (concentration not given with the values); 340,000 tested, 0.49% active; AID 651724, 2012; AlphaScreen GST-E1A/His-CtBP binding, 1536-well; stronger effect = lower value; control for the full effect not named in the record; CtBP / adenovirus E1A interaction (AlphaScreen); in the data active means activity change below about -65%; inconclusive means about -30% to -65%; inactive means above about -30%; further: on the % scale 0 is the no-effect control and ±100 the full control effect
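Protein mix (5X: 125 nM each GST-E1A, His-CtBP) was incubated with pinned compound 2 h at 37 deg C in dark, in 50 mM Tris pH 8.0 buffer with 300 mM NaCl. Glutathione donor and nickel acceptor beads followed; AlphaScreen signal read after 1 h.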
Six1-Eya2 inh = qHTS Assay for Inhibitors of the Six1/Eya2 Interaction. Homeobox protein SIX1 (Homo sapiens) + Protein phosphatase EYA2 (Homo sapiens), …. AlphaScreen GST-Six1/His-Eya2 binding, biochemical; stronger effect = lower value; control for the full effect not named in the record. activity change, % (no concentration beside the values). 360,000 tested, 0.56% active; in the data active = activity change below about -65%; inconclusive = about -30% to -65%; inactive = above about -30%; further: on the % scale 0 is the no-effect control and ±100 the full control effect; compound concentration not given in the record
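GST-Six1 + His-Eya2 (5X stock: 250/500 nM); Tris pH 8.0, 300 mM NaCl, 0.05% BSA, 0.02% Tween 20; GSH donor/Ni acceptor beads; 1 h 37 °C dark; AlphaScreen readout.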
Active calls of the source: *; ? = inconclusive; nt = no result given; [ ] = remark or other dose. Compounds were not picked by outcome (roughly 1.4% active in at least one column).

SMILES | D2 ag | gsp ag | D2 potentiator | gsp antag | CtBP-E1A blk | Six1-Eya2 inh
Cn1cnnc1Sc1nc2c(c(=O)n(C)c(=O)n2C)n1Cc1ccccc1Cl | -2.0 | ? | -7 | 16% | -1 | 0
c1ccc2sc(N3CN(CCN4CCOCC4)CN(c4nc5ccccc5s4)C3)nc2c1 | -2.5 | 1% | -6 | 21% | -5 | -1
CCc1noc2c1/C(=N\O)CC(c1ccccc1)C2 (stereo not drawn) | 2.5 | 6% | -17 | -7%[15.4 µM] | 0 | 9
COc1cccc2c1OCC1COc3c(c(=O)n(C)c(=O)n3C)C21 (stereo not drawn) | -1.9 | -28% | 14 | 2% | 4 | 0
COc1cc(C(=O)Nc2ccc(C(=O)NCC3CCCO3)cc2)cc(OC)c1OC (stereo not drawn) | -3.9 | ? | 6 | -1% | nt | -3
COc1ccc(C=C2NC(=O)NC2=O)cc1O | -4.1 | 0% | -6 | nt | -13 | 24
C=CCSc1ncc(C(=O)OCC)c(N)n1 | 1.7 | 28%[15.4 µM] | -6 | 2% | 9 | 3
CC(=O)c1c(C)[nH]c(C(=O)OCC(=O)Nc2ccc(Cl)cc2[N+](=O)[O-])c1C | 7.2 | 16%[15.4 µM] | 20 | ? | 9 | -2
Cc1ccc(Cl)cc1NC(=O)C1CCCN(S(=O)(=O)c2c(C)noc2C)C1 (stereo not drawn) | -4.2 | -4% | -17 | -19% | 0 | 0
O=C(Nc1ccc2c(c1)OCO2)c1cccc(S(=O)(=O)N2CCCC2)c1 | -4.1 | ? | 1 | ? | ? | ?
O=C(O)C1CCN(Cc2oc(CO)cc(=O)c2O)C1 (stereo not drawn) | -2.4 | -66%[inhibitor] | 2 | 5% | 0 | 3
COc1ccc(-n2c(O)cnc2Nc2nc(C)cc(C)n2)cc1OC | 0.6 | -31%[inhibitor] | 5 | 5% | 12 | 8
CC(C)C(c1nnnn1CC1CCCO1)N1CCN(Cc2ccc3c(c2)OCO3)CC1 (stereo not drawn) | 6.3 | -45%[inhibitor] | -16 | 3% | 5 | 12
Cc1ccc(S(=O)(=O)NC2CCC(C(=O)O)CC2)cc1 (stereo not drawn) | -0.5 | 8% | -5 | 2% | -11 | 2
O=C(O)C1C2CCC(CC2)C1C(=O)O (stereo not drawn) | -2.9 | -58%[inhibitor] | 6 | -9% | 0 | 3
O=C(Nc1cnccc1C(F)(F)F)NC1CCCCC1 | 0.6 | 5%[15.4 µM] | -10 | -2% | 7 | 5
CC(C)=C(C#N)c1nc2ccccc2s1 | -3.8 | ? | -1 | -7% | 11 | 3
N#Cc1cccc(OC(=O)c2ccc3c(=O)n4c(nc3c2)CCC4)c1 | -8.2 | -10%[15.4 µM] | -10 | -23% | 0 | 2
Cc1ccc(C(=O)Nc2c(C)cc(-c3ccccc3)oc2=O)cc1 | -3.8 | -1%[15.4 µM] | -8 | nt | -12 | 3
CC1(C)NC(=O)N(CC(O)CN(c2ccccc2)S(=O)(=O)c2ccc([N+](=O)[O-])cc2)C1=O (stereo not drawn) | 6.8 | -36%[inhibitor] | 5 | 6% | -7 | 2
CC(=O)c1cccc(NC(=S)NCCc2ccc(F)cc2)c1 | -2.6 | 0%[15.4 µM] | -10 | 7% | 4 | 8
O=C(NC1CCCC1)c1ccc(COCC(F)(F)C(F)F)o1 | -0.6 | 13% | -6 | 8% | -4 | 4
O=C1COc2ccccc2N1Cc1c(F)cccc1Cl | 0.8 | 1% | -2 | -19% | nt | 10
COc1cccc2cc(-c3cc(=O)oc4cc(C)c(O)cc34)oc12 | 7.1 | -1% | -5 | -8% | nt | 6
Cc1ccc(N(C)S(=O)(=O)c2cccc(C(=O)Nc3ccc(C)cn3)c2)cc1 | 2.2 | -6% | 0 | ? | -2 | 0
O=C(O/N=C\c1ccc(N2CCCCC2)c([N+](=O)[O-])c1)c1ccc(Cl)cc1Cl | -1.2 | -56%[inhibitor] | -1 | -19% | ? | ?
CCN(CC)c1ccc([N+](=O)[O-])cc1C(=O)O | -4.6 | 0% | -24 | -8% | -3 | -6
CCN1CCN(c2ccc(S(=O)(=O)N3CCCCC3)cc2NC(=O)c2cc3ccccc3o2)CC1 | -7.8 | 16%[15.4 µM] | 0 | -15% | 0 | 1
C=CCSc1nnc(NC(=O)c2cccc(S(=O)(=O)N(C)c3ccccc3)c2)s1 | -0.4 | -1% | 0 | 40µM* | 5 | -24
CCOc1ccccc1NC(=O)CCNS(=O)(=O)c1ccc(NC(C)=O)cc1 | -2.2 | -15% | -1 | 9% | nt | -1

Quoted at random: three compounds from above.
SMILES | D2 ag | gsp ag | D2 potentiator | gsp antag | CtBP-E1A blk | Six1-Eya2 inh
COc1cccc2cc(-c3cc(=O)oc4cc(C)c(O)cc34)oc12 | 7.1 | -1% | -5 | -8% | nt | 6
CCOc1ccccc1NC(=O)CCNS(=O)(=O)c1ccc(NC(C)=O)cc1 | -2.2 | -15% | -1 | 9% | nt | -1
Cc1ccc(C(=O)Nc2c(C)cc(-c3ccccc3)oc2=O)cc1 | -3.8 | -1%[15.4 µM] | -8 | nt | -12 | 3

(next part)
SMILES | D2 ag | gsp ag | D2 potentiator | gsp antag | CtBP-E1A blk | Six1-Eya2 inh
CC(NC(=O)c1ccccc1F)c1cccc2ccccc12 (stereo not drawn) | -1.9 | -5% | -13 | -12% | 7 | -3
C/C(=N\NC(=O)CNc1cccc(C(F)(F)F)c1)c1cccs1 | -4.4 | 15% | -5 | -6% | 2 | 0
C=CCN1C(=O)C(C)(C)Nc2ccccc21 | -2.1 | ? | 0 | 0% | 3 | -1
CN1C(=O)[C@@H]2[C@H](C1=O)[C@@H]1C(=O)Nc3ccccc3C(=O)N1[C@@H]2c1ccc(Br)cc1 | -4.0 | 19% | -8 | 1% | 2 | 1
O=C(NN=C1CCCCCC1)c1cc2ccccc2cc1O | -1.9 | 11% | -10 | -1% | -3 | -2
CS(=O)(=O)c1nc(S(=O)(=O)c2ccc(Cl)cc2)c(NCCCN2CCOCC2)s1 | -1.1 | 12% | -12 | 1% | 3 | 3
COc1ccccc1NC(=O)C(C)OC(=O)Cc1ccsc1 (stereo not drawn) | 1.9 | 4%[15.4 µM] | 0 | 3% | 1 | 5
COc1cc(C(=O)Nc2cccc(-c3nc4ccccc4o3)c2C)cc(OC)c1OC | -0.6 | ? | -5 | -6% | -3 | 4
N#C/C(=C\c1ccncc1)C(=O)Nc1ccc(C(=O)O)cc1 | -2.3 | 15% | -12 | -3% | nt | 11
c1coc(CNc2c3c(nc4ncnn24)CCC3)c1 | -1.3 | ? | -16 | 7% | 3 | -1
Cc1cc(OCC(=O)Nc2nnc(C3CC3)s2)ccc1Cl | -0.1 | ? | 2 | nt | 5 | 3
CCCCC(=O)NCCNc1nc2c(c(=O)n(C)c(=O)n2C)n1Cc1ccccc1 | -2.8 | 18% | -7 | 5% | 1 | -2
N/C(=N\OC(=O)CCCOc1ccccc1)c1ccc([N+](=O)[O-])cc1 | 3.5 | -16% | -3 | 16% | 0 | -5
CC1CCCCC12NC(=O)N(CC(=O)OCC(=O)NC(=O)c1ccccc1)C2=O (stereo not drawn) | 0.0 | ? | -3 | 24% | 1 | -1
Cc1nnc(NC(=O)CCC(=O)N2CCN(CCOc3cccc4ccccc34)CC2)s1 | ? | -1%[15.4 µM] | -22 | -3% | 3 | -11
CCc1ccc(C(=O)C(C)OC(=O)Cc2n[nH]c(=O)c3ccccc23)cc1 (stereo not drawn) | 0.3 | 12% | -5 | -5% | 1 | -2
CC1CCCN(CCCOc2ccc(Br)cc2Cl)C1 (stereo not drawn) | -5.7 | -4%[15.4 µM] | -11 | -3% | 0 | -13
CCN1C(=O)CC(N2CCN(C(c3ccccc3)c3ccccc3)CC2)C1=O (stereo not drawn) | -3.5 | 13% | -7 | -2% | -1 | -3
CCC(C)N(C(=O)C(F)(F)F)C(C(=O)NC1CCCCC1)c1ccncc1 (stereo not drawn) | -1.9 | 13% | -6 | 8% | -1 | 5
Cc1ccc(N(CC(=O)NN=C2CCN(C)CC2)S(=O)(=O)c2ccccc2)c(C)c1 | -1.8 | 12% | -17 | -4% | 3 | -5
O=C(Cc1ccccc1)Nc1nnc(-c2ccccc2)o1 | -0.6 | -2% | -5 | -4% | -3 | ?
CCN(CC)c1ccc(/C=N/NC(=O)c2cccc(S(=O)(=O)Nc3ccccc3OC)c2)c(O)c1 | -3.0 | -5%[15.4 µM] | -4 | -1% | 0 | ?
N#C/C(=N\Nc1ccc(Cl)cc1)C(=O)c1ccccc1 | -5.4 | -3%[15.4 µM] | -29 | 28µM* | -6 | -17
COc1ccccc1NC(=O)CN(c1ccccc1)S(=O)(=O)c1ccccc1 | 0.6 | 6% | -4 | -19% | -5 | 5
COc1cc(C(=O)Nc2ccc3c(c2)OCCO3)c(-n2cnnn2)cc1OC | -0.8 | 14% | -1 | 4% | 25 | 21
O=C1CN(C(=O)c2ccc(Cl)c(S(=O)(=O)N3CCc4ccccc43)c2)c2ccccc2N1 | 2.3 | 16%[15.4 µM] | 1 | ? | -5 | -13
CCN1C(=O)[C@H]2[C@@H](c3ccc(OC)cc3)N[C@]3(CCCN(Cc4ccc(Br)cc4)C3=O)[C@H]2C1=O | 1.6 | -85%[inhibitor] | 4 | nt | 4 | 17
Cc1cccc(C)c1NC(=O)COC(=O)C1Cc2ccccc2CN1C(=O)c1ccccc1 (stereo not drawn) | -1.2 | -16% | 0 | ? | -1 | -8
O=C1OCC2=C1C(c1ccccc1)CC(=O)N2c1cccc(F)c1 (stereo not drawn) | -5.5 | -14%[15.4 µM] | -8 | -23% | 1 | 6
O=C1CCCC2=C1Sc1ccc(Cl)cc1N2 | 2.3 | -5% | -8 | -16% | nt | -18
CCc1ccc2c(CN3CCN(S(=O)(=O)c4ccc5c(c4)OCCO5)CC3)cc(=O)oc2c1 | -2.0 | -5% | -3 | -13% | 9 | -8

Profiles as entered above. Order of screens: D2 ag	gsp ag	D2 potentiator	gsp antag	CtBP-E1A blk	Six1-Eya2 inh
CCc1ccc(C(=O)C(C)OC(=O)Cc2n[nH]c(=O)c3ccccc23)cc1 (stereo not drawn) across the screens: 0.3	12%	-5	-5%	1	-2
CCc1ccc2c(CN3CCN(S(=O)(=O)c4ccc5c(c4)OCCO5)CC3)cc(=O)oc2c1 across the screens: -2.0	-5%	-3	-13%	9	-8
N#C/C(=N\Nc1ccc(Cl)cc1)C(=O)c1ccccc1 across the screens: -5.4	-3%[15.4 µM]	-29	28µM*	-6	-17
